High-throughput results deposited in PubChem BioAssay by Broad Institute.
HIV_Env_fusion: HIV envelope-mediated fusion inhibition | HeLa-JRFL Env/CEM21 cell fusion, luciferase | 1.1% of 360,000 active | inhibition, % at 12.3 µM;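 active = mean replicate inhibition score of at least 50 and every replicate individually at or above 50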;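 note: 0% = plate neutral controls and 100% = maraviroc near 300 nM; one replicate is shown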
Yeast_UUG_start: modulators of start codon recognition fidelity in yeast; S. cerevisiae UUG-firefly luciferase reporter, luminescence/redox ratio; activity score, % at 18.7 µM; 0.13% of 350,000 active;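 active = replicate mean at a twofold rise or more, about +100% in these data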;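 note: firefly luciferase made from a UUG start codon reports start codon fidelity; reporter light over untreated wells divided by growth signal over untreated wells; some hits fall short of that in this replicate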
Starred values were filed as active, the others as inactive; [ ] = dose if it differs, or a comment. Only part of the results is shown; rates above refer to the full screens.

SMILES HIV_Env_fusion Yeast_UUG_start
COc1ccc(CN(C)C[C@H]2OCCCC[C@@H](C)Oc3ccc(NC(=O)Nc4cccc5ccccc45)cc3C(=O)N([C@@H](C)CO)C[C@H]2C)cc1 -4[16.7_µM] 12
C[C@@H]1CN([C@@H](C)CO)C(=O)c2cc(C#CC3CCCCC3)cnc2O[C@H]1CN(C)C(=O)Cc1ccccn1 -2[16.7_µM] 1
COc1ccc(NC(=O)Nc2ccc3c(c2)C(=O)N([C@H](C)CO)C[C@H](C)[C@H](CN(C)S(C)(=O)=O)OCCCC[C@@H](C)O3)cc1 -1[16.7_µM] 15
C[C@H](CO)N1C[C@H](C)[C@H](CN(C)Cc2ccc(C(F)(F)F)cc2)OCCCC[C@H](C)Oc2ccc(N(C)C)cc2C1=O 28[16.7_µM] 1
CC(C)CC#Cc1cnc2c(c1)C(=O)N([C@H](C)CO)C[C@H](C)[C@@H](CN(C)C(=O)c1cnccn1)O2 -8[16.7_µM] 9
C[C@H]1CN([C@@H](C)CO)C(=O)c2cc(C#CC3(O)CCCC3)cnc2O[C@H]1CN(C)Cc1ccncc1 5[16.7_µM] 2
O=C(NCC[C@@H]1CC[C@H](NS(=O)(=O)c2ccccc2)[C@@H](CO)O1)c1cc(Cl)cc(Cl)c1 11[16.7_µM] 14
C[C@H](CO)N1C[C@H](C)[C@H](CN(C)C(=O)NC2CCCCC2)OCCCC[C@H](C)Oc2ccc(NS(=O)(=O)c3cn(C)cn3)cc2C1=O 20[16.7_µM] -2
Cc1cc(C(=O)Nc2cccc3c2O[C@H](CN(C)Cc2ccc4c(c2)OCO4)[C@H](C)CN([C@H](C)CO)C3=O)n(C)n1 5[16.7_µM] -1
C[C@@H]1CCCCO[C@H](CN(C)C(=O)Nc2ccc(F)cc2)[C@@H](C)CN([C@H](C)CO)C(=O)c2cc(NC(=O)Nc3ccc(C(F)(F)F)cc3)ccc2O1 9[16.7_µM] 5
CC(C)CC#Cc1ccc2c(c1)O[C@@H](CN(C)C(=O)Nc1ccccc1F)[C@@H](C)CN([C@H](C)CO)S2(=O)=O 15[16.7_µM] 1
Cc1noc(C)c1S(=O)(=O)Nc1cccc2c1O[C@H](CN(C)Cc1ccc(C(=O)O)cc1)[C@H](C)CN([C@H](C)CO)C2=O 1[16.7_µM] 5
C[C@@H]1CN([C@H](C)CO)C(=O)c2cc(C3=CCCCC3)cnc2O[C@H]1CN(C)C(=O)c1ccc2c(c1)OCO2 -9[16.7_µM] 5
Cc1noc(C)c1S(=O)(=O)Nc1ccc2c(c1)C(=O)N([C@H](C)CO)C[C@H](C)[C@@H](CN(C)S(=O)(=O)c1ccccc1)OCCCC[C@@H](C)O2 4[16.7_µM] -8
CNC[C@H]1Oc2ccc(NC(=O)c3ccncc3)cc2CC(=O)N([C@H](C)CO)C[C@@H]1C 4[16.7_µM] 24
C[C@@H]1CN([C@@H](C)CO)C(=O)c2cc(NC(=O)Nc3ccccc3)ccc2O[C@@H]1CN(C)Cc1ccccc1 11[16.7_µM] 24
Cc1noc(C)c1S(=O)(=O)Nc1ccc2c(c1)C(=O)N([C@@H](C)CO)C[C@@H](C)[C@@H](CN(C)C(=O)Nc1ccc3c(c1)OCO3)OCCCC[C@@H](C)O2 -15[16.7_µM] 2
Cc1ccc(S(=O)(=O)N(C)C[C@@H]2Oc3c(NC(=O)c4cnccn4)cccc3C(=O)N([C@H](C)CO)C[C@H]2C)cc1 -23[16.7_µM] 1
CN1C(=O)c2cc(NC(=O)Nc3ccccc3Cl)ccc2OC[C@H]2O[C@@H](CC(=O)O)CC[C@H]21 1[16.7_µM] -8
COc1ccccc1NC(=O)N[C@@H]1CC[C@@H](CC(=O)N2CCC(Cc3ccccc3)CC2)O[C@@H]1CO 2[16.7_µM] 17
O=C(C[C@H]1CC[C@@H]2[C@H](COC[C@@H](O)CN2C(=O)Nc2cccc(Cl)c2)O1)NCc1ccccc1F -4[16.7_µM] 9
CC(C)CC#Cc1cnc2c(c1)C(=O)N([C@H](C)CO)C[C@@H](C)[C@H](CN(C)C(=O)CCN1CCCCC1)O2 -1[16.7_µM] -3
CCOC(=O)N(C)c1c(CC)nc2c(OCc3ccc(OC(F)F)cc3)cccn12 8 -22
C[C@@H]1CN([C@@H](C)CO)S(=O)(=O)c2ccc(C3=CCCC3)cc2O[C@@H]1CN(C)C(=O)CC1CC1 3[16.7_µM] -1
C[C@@H]1CN([C@H](C)CO)S(=O)(=O)c2ccc(-c3cccc(F)c3)cc2O[C@@H]1CN(C)C(=O)c1cccc(F)c1 13[16.7_µM] 5
COc1ccc(NC(=O)Nc2ccc3c(c2)CC(=O)N([C@H](C)CO)C[C@H](C)[C@@H](CN(C)Cc2ccc(Oc4ccccc4)cc2)O3)cc1 -1[16.7_µM] 23
CCS(=O)(=O)Nc1ccc2c(c1)C(=O)N(C)[C@@H]1CC[C@@H](CC(=O)N3CCOCC3)O[C@H]1CO2 4[16.7_µM] -13
COc1ccc(S(=O)(=O)N(C)C[C@@H]2OCCCC[C@@H](C)Oc3ccc(NC(=O)CCC(F)(F)F)cc3C(=O)N([C@H](C)CO)C[C@H]2C)cc1 5[16.7_µM] 16
O=C(CCN1CCCCC1)N[C@H]1CC[C@@H](CCNS(=O)(=O)c2ccc(Cl)cc2)O[C@H]1CO 0[16.7_µM] 11
C[C@@H]1CN([C@@H](C)CO)C(=O)c2cc(NC(=O)C3CCCCC3)ccc2O[C@@H](C)CCCCO[C@@H]1CN(C)C(=O)c1ccncc1 2[16.7_µM] 13
CC(=O)N[C@@H]1CC[C@@H](CCNC(=O)C2CC2)O[C@H]1CO -6[16.7_µM] -18
COCC(=O)Nc1ccc2c(c1)[C@@H]1C[C@@H](CC(=O)NCc3cc(F)ccc3F)O[C@@H](CO)[C@@H]1O2 -56[16.7_µM] 7
CCCNC(=O)N[C@H]1CC[C@@H](CC(=O)NC2CCCCC2)O[C@H]1CO -17[16.7_µM] -18
COc1ccc(NC(=O)Nc2ccc3c(c2)C(=O)N([C@H](C)CO)C[C@@H](C)[C@H](CN(C)Cc2ccc(C(=O)O)cc2)OCCCC[C@H](C)O3)cc1 22[16.7_µM] 8
Cc1noc(C)c1S(=O)(=O)Nc1ccc2c(c1)C(=O)N([C@@H](C)CO)C[C@H](C)[C@H](CN(C)C(=O)Cc1ccccc1)OCCCC[C@@H](C)O2 -4[16.7_µM] 14
C[C@H](CO)N1C[C@H](C)[C@@H](CN(C)Cc2ccc(Oc3ccccc3)cc2)Oc2ccc(NC(=O)Nc3ccccc3)cc2C1=O -16[16.7_µM] 26
CC(C)NC(=O)Nc1ccc2c(c1)CC(=O)N([C@@H](C)CO)C[C@@H](C)[C@H](CN(C)S(=O)(=O)c1cn(C)cn1)O2 15[16.7_µM] 17
C[C@@H]1CN([C@H](C)CO)C(=O)c2cccc(NC(=O)Nc3ccc4c(c3)OCO4)c2O[C@H]1CN(C)C(=O)Nc1ccc(F)cc1 -18[16.7_µM] 1
C[C@H](CO)N1C[C@H](C)[C@H](CN(C)Cc2ccncc2)Oc2cc(-c3ccccc3)ccc2S1(=O)=O 11[16.7_µM] 27
N#C[C@H]1[C@H](c2ccc(C3=CCCC3)cc2)[C@H](CO)N1C(=O)C1CC1 7[16.7_µM] 20

The final 2 records of the section above lead into the next:
SMILES HIV_Env_fusion Yeast_UUG_start
C[C@H](CO)N1C[C@H](C)[C@H](CN(C)Cc2ccncc2)Oc2cc(-c3ccccc3)ccc2S1(=O)=O 11[16.7_µM] 27
N#C[C@H]1[C@H](c2ccc(C3=CCCC3)cc2)[C@H](CO)N1C(=O)C1CC1 7[16.7_µM] 20
Cc1noc(C)c1S(=O)(=O)N(C)C[C@@H]1OCCCC[C@@H](C)Oc2ccc(N(C)C)cc2C(=O)N([C@@H](C)CO)C[C@@H]1C -7[16.7_µM] -7
C[C@@H]1CN([C@@H](C)CO)C(=O)Cc2cc(NS(=O)(=O)c3ccccc3)ccc2O[C@@H]1CN(C)Cc1ccc(Cl)c(Cl)c1 13[16.7_µM] 17
O=C(C[C@@H]1CC[C@H](NC(=O)Nc2ccc(F)cc2)[C@H](CO)O1)NCc1cccc(F)c1 -7[16.7_µM] -5
C[C@H]1CN([C@@H](C)CO)S(=O)(=O)c2ccc(-c3ccccc3)cc2O[C@@H]1CN(C)Cc1ccncc1 24[16.7_µM] -1
Cc1noc(C)c1NC(=O)N(C)C[C@H]1Oc2c(NS(=O)(=O)c3ccc(Cl)cc3)cccc2C(=O)N([C@H](C)CO)C[C@H]1C 19[16.7_µM] 14
Cc1noc(C)c1NC(=O)N(C)C[C@@H]1Oc2ccc(NS(=O)(=O)c3cn(C)cn3)cc2CC(=O)N([C@H](C)CO)C[C@H]1C -20[16.7_µM] 1
C[C@@H]1CN([C@H](C)CO)C(=O)Cc2cc(N(C)C)ccc2O[C@H]1CN(C)Cc1ccc(C(=O)O)cc1 -9[16.7_µM] 9
Cc1ccc(S(=O)(=O)Nc2ccc3c(c2)CC(=O)N([C@H](C)CO)C[C@H](C)[C@@H](CN(C)S(=O)(=O)c2ccc(F)cc2)O3)cc1 -29[16.7_µM] 15
C[C@@H]1CN([C@H](C)CO)C(=O)c2cc(NC(=O)CCC(F)(F)F)ccc2O[C@@H](C)CCCCO[C@H]1CN(C)Cc1ccncc1 -22[16.7_µM] -3
CC(C)c1cn(CC[C@H]2CC[C@@H](NS(=O)(=O)c3ccccc3)[C@@H](CO)O2)nn1 -17[16.7_µM] -26
C[C@H]1CN([C@@H](C)CO)C(=O)c2cccc(NS(=O)(=O)c3ccc(F)cc3)c2O[C@H]1CN(C)C(=O)Nc1ccccc1 -72[16.7_µM] 9
O=C(CCN1CCCCC1)NCC[C@H]1CC[C@H](NC(=O)c2ccc(F)cc2)[C@@H](CO)O1 -23[16.7_µM] -9
O=C(O)C[C@H]1C[C@@H]2c3cc(NC(=O)c4ccc5c(c4)OCO5)ccc3O[C@@H]2[C@@H](CO)O1 -1[16.7_µM] -2
CCC(=O)N(C)C[C@@H]1Oc2ncc(C#C[C@H](C)O)cc2C(=O)N([C@@H](C)CO)C[C@H]1C -3[16.7_µM] 4
C[C@H]1CN([C@@H](C)CO)C(=O)c2cc(-c3cccc(F)c3)cnc2O[C@H]1CN(C)C(=O)C1CCC1 2[16.7_µM] -3
COc1ccc(NC(=O)N[C@@H]2CC[C@H](CCn3cc(-c4ccccc4F)nn3)O[C@@H]2CO)cc1 -4[16.7_µM] 9
C[C@@H]1CN([C@@H](C)CO)C(=O)Cc2cc(NS(=O)(=O)c3cccs3)ccc2O[C@H]1CN(C)Cc1ccc(C(=O)Nc2ccccc2N)cc1 -1[16.7_µM] -2
COc1ccc(S(=O)(=O)Nc2ccc3c(c2)C(=O)N([C@@H](C)CO)C[C@H](C)[C@@H](CN(C)C(=O)Nc2ccc4c(c2)OCO4)O3)cc1 8[16.7_µM] 1
C[C@H]1CN([C@@H](C)CO)C(=O)c2cc(C3=CCCCC3)cnc2O[C@H]1CN(C)C(=O)c1ccccn1 -3[16.7_µM] -10
C[C@@H]1CN([C@H](C)CO)C(=O)c2cccc(NS(=O)(=O)c3ccc(F)cc3)c2O[C@@H]1CN(C)Cc1ccc(C(=O)Nc2ccccc2N)cc1 32[16.7_µM] 7

Random excerpt: 5 records from the list
SMILES HIV_Env_fusion Yeast_UUG_start
O=C(C[C@@H]1CC[C@H](NC(=O)Nc2ccc(F)cc2)[C@H](CO)O1)NCc1cccc(F)c1 -7[16.7_µM] -5
C[C@@H]1CN([C@@H](C)CO)C(=O)Cc2cc(NS(=O)(=O)c3cccs3)ccc2O[C@H]1CN(C)Cc1ccc(C(=O)Nc2ccccc2N)cc1 -1[16.7_µM] -2
COc1ccc(NC(=O)N[C@@H]2CC[C@H](CCn3cc(-c4ccccc4F)nn3)O[C@@H]2CO)cc1 -4[16.7_µM] 9
O=C(O)C[C@H]1C[C@@H]2c3cc(NC(=O)c4ccc5c(c4)OCO5)ccc3O[C@@H]2[C@@H](CO)O1 -1[16.7_µM] -2
CC(C)c1cn(CC[C@H]2CC[C@@H](NS(=O)(=O)c3ccccc3)[C@@H](CO)O2)nn1 -17[16.7_µM] -26

Next part:
SMILES HIV_Env_fusion Yeast_UUG_start
C[C@H]1CN([C@@H](C)CO)S(=O)(=O)c2ccc(C#Cc3ccc(F)cc3)cc2O[C@H]1CN(C)C(=O)CN(C)C -5[16.7_µM] 22
CC(=O)N(C)C[C@H]1Oc2ncc(-c3cccc(F)c3)cc2C(=O)N([C@H](C)CO)C[C@@H]1C 1[16.7_µM] 17
COc1ccc(-c2cnc3c(c2)C(=O)N([C@H](C)CO)C[C@H](C)[C@H](CN(C)C(=O)CN(C)C)O3)cc1 3[16.7_µM] 1
CC(C)NC(=O)N(C)C[C@H]1Oc2ncc(-c3ccccc3F)cc2C(=O)N([C@H](C)CO)C[C@H]1C -17[16.7_µM] 0
C[C@H](CO)N1C[C@H](C)[C@@H](CN(C)C(=O)CCC(F)(F)F)OCCCC[C@H](C)Oc2ccc(NS(=O)(=O)c3cccs3)cc2C1=O -57[16.7_µM] 19
